GLA inh pH 4.5: blocks human alpha-galactosidase A at pH 4.5 | activity change, negative = inhibition, % at 105 µM | purified enzyme, 4-MU-alpha-Gal fluorescence, pH 4.5 | P06280 | 230,000 tested, under 10 active; inconclusive = small, poorly fitted or top-dose-only inhibition, or a rising curve; inactive = flat fitted curve, though single readings scatter; no compound was filed as active;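 further: 0% = full activity with enzyme and -100% = basal without enzyme; dose as in the result columns while the protocol names 77 µM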
Target sequence (P06280 whole entry, looked up): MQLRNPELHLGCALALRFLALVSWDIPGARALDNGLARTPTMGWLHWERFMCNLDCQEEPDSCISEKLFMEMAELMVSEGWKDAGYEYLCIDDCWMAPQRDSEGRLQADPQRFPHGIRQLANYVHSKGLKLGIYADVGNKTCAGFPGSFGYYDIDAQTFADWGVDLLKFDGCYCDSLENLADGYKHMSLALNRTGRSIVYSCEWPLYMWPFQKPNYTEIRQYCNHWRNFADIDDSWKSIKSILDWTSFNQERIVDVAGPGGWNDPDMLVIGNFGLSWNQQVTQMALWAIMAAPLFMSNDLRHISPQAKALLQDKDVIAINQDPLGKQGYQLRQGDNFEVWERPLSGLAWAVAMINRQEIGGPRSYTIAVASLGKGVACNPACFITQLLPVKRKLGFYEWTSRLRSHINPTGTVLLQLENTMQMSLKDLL
Rango release inh: inhibitors of RanGTP-induced Rango-importin beta complex dissociation; Biochemical FRET Rango-importin beta, RanGTP-induced dissociation; Potency, µM (top dose mostly 46.1 µM), for the others: top-dose activity change, negative = inhibition; actives 0.071% (n = 340,000); active means falling FRET ratio curve, often poorly fitted, with flat reads before Ran was added; inconclusive means other falling curves, or compound fluorescence or quenching; inactive means flat or rising ratio curve;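 further: potency means the concentration at half of the fitted maximal effect; % of control where 0% means no effect; nearly all actives have a fitted effect of over 45% in size; -100% = wells without RanGTP and RCC1; the record marks most hits as doubtful in a second field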
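Rango/importin beta premix (0.1/0.25 uM final), PBS + 1 mM DTT + 0.02% Tween-20 + 0.1% BSA; cpd 5 min RT; FRET pre-read; + RanGTP-RCC1 (0.6 uM Ran, 2 mM GTP, 0.2 uM RCC1); 45 min RT; FRET post-read, ex 430, em 486/530 nm.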
Rango complex inh: prevents formation of the Rango-importin beta complex; Rango CFP/YFP FRET sensor + importin beta, 45 min; Potency, µM (series often up to 92.2 µM), for the others: at the top dose inhibition of complex formation; Q14974; actives 0.031% (n = 340,000); active = rising FRET ratio curve, often small or poorly fitted; inconclusive = mostly compound fluorescence or quenching in the first reads; inactive = flat curves in all reads;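 further: potency means the concentration at half of the fitted maximal effect; 0% = DMSO wells and 100% = buffer wells lacking importin beta; nearly all actives have a fitted effect of over 15% in size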
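FRET biosensor Rango (snurportin 1 IBB between N-terminal EYFP and C-terminal Cerulean), 50 nM in PBS/1 mM DTT/0.02% Tween-20/0.1% BSA, preincubated 5 min RT with compound; 0.125 microM importin beta added, 45 min RT, CFP/YFP FRET ratio read.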
miR-21 FLuc: miR-21 reporter, rising signal. AID 2288. HeLa miR-21 FLuc reporter, luciferase, 48 h. Potency, µM (highest dose often 38.3 µM), for inactives: top-dose reporter change, positive = more light. 340,000 tested, under 10 active; active = well fitted rising curve with a large enough effect; inconclusive = small, poorly fitted or top-dose-only effect; inactive = no such curve, though single readings can be large or run the other way;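 further: % of control where 0% means no effect; miR-21 action dims this reporter so a rising signal means less miR-21 action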
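HeLa miR-21-FLuc reporter line, endogenous miR-21; 2000 cells/well in DMEM/10% FBS; compound titration up to ~40uM final, 48 h, 37 degree Celsius; luciferase detection reagent, 15 min lysis, CCD luminescence.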
The depositor's hits bear a star; ? = inconclusive; / = not tested or not shown; [ ] = dose if it differs, or a comment.

(1) Cc1[nH]cnc1CN1CCc2c(c3ccccc3n2C)C1=O
(2) COc1ccc(CCn2c(=O)c3cccnc3n(Cc3cccc([N+](=O)[O-])c3)c2=O)cc1OC
(3) C=CCn1c(Cc2cccs2)nnc1SCC(=O)Nc1cccc(OC)c1
(4) CC1CCN(CCCCOc2ccccc2-c2ccccc2)CC1
(5) CC(=O)Nc1ccc(C)cc1NC(C)=O

| compound no. | 1 | 2 | 3 | 4 | 5 |
| --- | --- | --- | --- | --- | --- |
| miR-21 FLuc | / | -2.9% | -1.6% | 27.9% | -1.1% |
| Rango release inh | 9.2% | -2.5% | -5.4% | -1.8% | -9.5% |
| Rango complex inh | 4.0% | -0.5% | -1.2% | 3.3% | -1.5% |
| GLA inh pH 4.5 | / | 1.6 | -2.4 | 12.1 | -11.4 |

(6) O=C(Nc1ccc(F)cc1)c1ccccc1F
(7) Cn1c(SCC(=O)NC2CC2)nnc1-c1cccs1
(8) COC(=O)CC(NC(=O)c1ccco1)c1cccc2ccccc12 (stereo not given)
(9) COCC(C)n1c(SCC(=O)N2CC(=O)Nc3ccccc32)nc2ccccc2c1=O (stereo not given)
(10) CCc1nnc(NC(=O)CSc2nc(C)c3c(c2C#N)CCCC3)s1

| compound no. | 6 | 7 | 8 | 9 | 10 |
| --- | --- | --- | --- | --- | --- |
| miR-21 FLuc | -43.5% | -54.0% | 1.6% | / | 15.1% |
| Rango release inh | 6.9% | 1.2% | -9.1% | -7.8% | ? |
| Rango complex inh | -4.4% | -0.8% | 4.7% | -5.6% | ? |
| GLA inh pH 4.5 | -4.8 | / | -2.7 | / | ? |

(11) CCC(C)NC(=O)c1ccc(NC(=O)C2=C(C)OCCS2)cc1 (stereo not given)
(12) O=C(Nc1ccon1)c1ccc2c(c1)OCO2
(13) O=C(NCCN1CCOCC1)c1ccc2c(c1)N(Cc1ccccc1F)C(=O)c1ccccc1S2(=O)=O
(14) COC(=O)c1ccccc1NC(=O)c1ccco1
(15) Cc1c([N+](=O)[O-])c([N+](=O)[O-])nn1CC(=O)N1CCOCC1

| compound no. | 11 | 12 | 13 | 14 | 15 |
| --- | --- | --- | --- | --- | --- |
| miR-21 FLuc | -4.2% | -29.8% | -1.4% | -3.6% | -2.2% |
| Rango release inh | 15.2% | -8.1% | -3.8% | -2.6% | 4.0% |
| Rango complex inh | -0.9% | 2.1% | -1.2% | 3.8% | 1.3% |
| GLA inh pH 4.5 | / | 1.3 | / | 2.0 | -8.4 |

(16) CC1=NN(c2ccccc2)C(=O)/C1=C/N(C)C
(17) COc1ccc(Oc2ncccc2[N+](=O)[O-])cc1
(18) NS(=O)(=O)c1ccc(NC(=O)c2ccc(-c3ccccc3)cc2)cc1
(19) O=S(=O)(c1ccccc1)N1CCN(S(=O)(=O)c2ccc(F)cc2)CC1
(20) Cc1ccc(NC(=O)c2n[nH]c(=O)c3ccccc23)cc1S(=O)(=O)N1CCOCC1

| compound no. | 16 | 17 | 18 | 19 | 20 |
| --- | --- | --- | --- | --- | --- |
| miR-21 FLuc | -8.9% | -14.1% | -5.2% | -3.1% | / |
| Rango release inh | -0.5% | 11.4% | -5.8% | -9.3% | 5.1% |
| Rango complex inh | -4.7% | 2.6% | 4.2% | -2.9% | 0.1% |
| GLA inh pH 4.5 | 0.0 | 5.2 | 2.8 | / | / |

(21) Cc1ccc(S(=O)(=O)N2CCCCC2)cc1NC(=O)c1ccccc1Cl
(22) O=S(=O)(c1ccccc1)N1CCN=C1SCc1cccnc1
(23) CCC(=O)Nc1cccc(C2=NOC3(C2)C[C@H](C(N)=O)N(C(=O)CC#N)C3)c1 (stereo not given in full)
(24) COc1ccc(NC(=O)CN(C)C(=O)c2cnc(Cl)c(Cl)c2)cc1
(25) Cc1ccc2oc(=O)c(/C=C(\O)c3sc(C)nc3C)nc2c1

| compound no. | 21 | 22 | 23 | 24 | 25 |
| --- | --- | --- | --- | --- | --- |
| miR-21 FLuc | / | -11.5% | 3.9% | -2.9% | 0.3% |
| Rango release inh | -13.8% | 0.3% | 22.2% | 6.8% | -8.6% |
| Rango complex inh | -2.5% | 0.1% | -1.9% | 1.6% | ? |
| GLA inh pH 4.5 | / | 1.7 | -14.5 | / | -0.9 |

In the list so far, two contain an NH in an aromatic ring:
(1) Cc1[nH]cnc1CN1CCc2c(c3ccccc3n2C)C1=O
(20) Cc1ccc(NC(=O)c2n[nH]c(=O)c3ccccc23)cc1S(=O)(=O)N1CCOCC1

| compound no. | 1 | 20 |
| --- | --- | --- |
| miR-21 FLuc | / | / |
| Rango release inh | 9.2% | 5.1% |
| Rango complex inh | 4.0% | 0.1% |
| GLA inh pH 4.5 | / | / |

Other compounds
(26) CN1C(=O)N(C)c2ccc(C=O)c3cccc1c23
(27) O=C(CN(c1cc(C(F)(F)F)ccc1Cl)S(=O)(=O)c1ccccc1)NCc1cccnc1
(28) C=CCOc1ccccc1CN(CCc1ccccc1)C(=O)c1cccc(S(C)(=O)=O)c1
(29) CCc1ccc(-c2nc(CS(=O)CC(=O)NCCCN3CCC(C)CC3)c(C)o2)cc1 (stereo not given)
(30) CC(c1nnc(SCC(=O)NC(=O)NCc2ccco2)n1-c1ccc(Cl)cc1)N(C)C (stereo not given)

| compound no. | 26 | 27 | 28 | 29 | 30 |
| --- | --- | --- | --- | --- | --- |
| miR-21 FLuc | 1.2% | 2.3% | 12.7% | -11.2% | -0.4% |
| Rango release inh | ? | ? | 7.8% | -4.0% | -7.9% |
| Rango complex inh | ? | -4.4% | 2.0% | -2.0% | -3.6% |
| GLA inh pH 4.5 | 1.8 | / | / | / | -9.9 |

(31) CCOCCCNc1nc2c(c(=O)[nH]c(=O)n2C)n1CCCc1ccccc1
(32) O=C(CCl)NC1CCCc2ccccc21 (stereo not given)
(33) CC1=C(C(=O)OCc2ccccc2)C(/C=C/c2ccccc2)N2C(=O)CCSC2=N1 (stereo not given)
(34) O=C1C(=O)N(Cc2cccnc2)C(c2ccccn2)/C1=C(/O)c1ccc(Br)cc1 (stereo not given)
(35) N#CC1=C(N)Oc2nc[nH]c(=O)c2C1c1cccs1 (stereo not given)

| compound no. | 31 | 32 | 33 | 34 | 35 |
| --- | --- | --- | --- | --- | --- |
| miR-21 FLuc | -1.6% | 27.2% | -8.9% | -6.8% | -1.6% |
| Rango release inh | ? | -3.0% | -5.2% | -0.9% | 24.2% |
| Rango complex inh | -0.5% | -0.6% | 2.7% | 1.1% | -0.2% |
| GLA inh pH 4.5 | 0.2 | -5.0 | -10.8 | 1.9 | -0.3 |

(36) CCOC(=O)c1ccc(NC(=O)C(=O)NCc2ccccn2)cc1
(37) Cc1cccc(NC(=O)CSc2n[nH]c(-c3ccncc3)n2)c1
(38) Cc1c(NC(=O)C(C)OC(=O)c2ccccc2O)c(=O)n(-c2ccccc2)n1C (stereo not given)
(39) COc1ccc(Cc2nnc(SCC(=O)Nc3ccc(C)cc3)n(N)c2=O)cc1
(40) Cc1nn(Cc2nc(-c3cccs3)no2)c(C)c1Br

| compound no. | 36 | 37 | 38 | 39 | 40 |
| --- | --- | --- | --- | --- | --- |
| miR-21 FLuc | -11.1% | -10.1% | / | / | -27.0% |
| Rango release inh | 3.4% | 16.6% | 1.3% | 12.8% | -14.2% |
| Rango complex inh | 1.1% | 0.2% | -3.1% | 2.3% | 0.7% |
| GLA inh pH 4.5 | 6.6 | 3.3 | / | / | 6.4 |

(41) COc1cc(NS(=O)(=O)c2ccc(C)cc2)ccc1-n1cnnn1
(42) O=C(CNC(=O)c1ccc(Oc2ccccc2)cc1)OC1CCCCC1=O (stereo not given)
(43) CN(C)CCCOC(=O)CCc1ccccc1
(44) C=CCOc1ccc2ccccc2c1CNc1ncn[nH]1
(45) CC(=O)Nc1n[nH]c(=S)s1

| compound no. | 41 | 42 | 43 | 44 | 45 |
| --- | --- | --- | --- | --- | --- |
| miR-21 FLuc | -53.5% | -5.6% | -6.4% | -2.1% | / |
| Rango release inh | 8.7% | 7.4% | 9.4% | 3.9% | -4.3% |
| Rango complex inh | -0.4% | 1.9% | 5.0% | -1.3% | 4.6% |
| GLA inh pH 4.5 | 2.5 | -1.1 | -12.3 | -2.5 | / |

2 entries picked at random from those above:
(41) COc1cc(NS(=O)(=O)c2ccc(C)cc2)ccc1-n1cnnn1
(42) O=C(CNC(=O)c1ccc(Oc2ccccc2)cc1)OC1CCCCC1=O (stereo not given)

| compound no. | 41 | 42 |
| --- | --- | --- |
| miR-21 FLuc | -53.5% | -5.6% |
| Rango release inh | 8.7% | 7.4% |
| Rango complex inh | -0.4% | 1.9% |
| GLA inh pH 4.5 | 2.5 | -1.1 |

Excerpt: nos. 42 to 45
(42) O=C(CNC(=O)c1ccc(Oc2ccccc2)cc1)OC1CCCCC1=O (stereo not given)
(43) CN(C)CCCOC(=O)CCc1ccccc1
(44) C=CCOc1ccc2ccccc2c1CNc1ncn[nH]1
(45) CC(=O)Nc1n[nH]c(=S)s1

| compound no. | 42 | 43 | 44 | 45 |
| --- | --- | --- | --- | --- |
| miR-21 FLuc | -5.6% | -6.4% | -2.1% | / |
| Rango release inh | 7.4% | 9.4% | 3.9% | -4.3% |
| Rango complex inh | 1.9% | 5.0% | -1.3% | 4.6% |
| GLA inh pH 4.5 | -1.1 | -12.3 | -2.5 | / |

Other entries follow:
(46) O=C(CNCC1CCCCC1)Nc1ccc(N2CCCCC2)cc1
(47) CC(C)C(C(=O)OCC(=O)c1ccc2c(c1)NC(=O)CO2)N1C(=O)c2ccccc2C1=O (stereo not given)
(48) CCN(CC)C(=O)c1cc(S(=O)(=O)N2CCCCC2)c[nH]1
(49) O=C(O)c1ccc(NC2=C/C(=N/S(=O)(=O)c3ccccc3)c3ccccc3C2=O)cc1
(50) CCCCOc1cccc(C(=O)NC(=S)Nc2cccc(C(F)(F)F)c2)c1

| compound no. | 46 | 47 | 48 | 49 | 50 |
| --- | --- | --- | --- | --- | --- |
| miR-21 FLuc | -4.0% | -2.0% | 7.4% | ? | -7.0% |
| Rango release inh | / | -6.9% | -4.7% | 10.6% | -8.8% |
| Rango complex inh | / | 1.6% | ? | -2.4% | 0.5% |
| GLA inh pH 4.5 | -28.8 | 5.3 | / | 5.2[21.1 µM] | -15.1 |

Grouped by structure, the entries above with a cyano group
(10) CCc1nnc(NC(=O)CSc2nc(C)c3c(c2C#N)CCCC3)s1
(23) CCC(=O)Nc1cccc(C2=NOC3(C2)C[C@H](C(N)=O)N(C(=O)CC#N)C3)c1 (stereo not given in full)
(35) N#CC1=C(N)Oc2nc[nH]c(=O)c2C1c1cccs1 (stereo not given)

| compound no. | 10 | 23 | 35 |
| --- | --- | --- | --- |
| miR-21 FLuc | 15.1% | 3.9% | -1.6% |
| Rango release inh | ? | 22.2% | 24.2% |
| Rango complex inh | ? | -1.9% | -0.2% |
| GLA inh pH 4.5 | ? | -14.5 | -0.3 |

Source: PubChem BioAssay

An excerpt; rates above refer to the full screens.
